HNF4A DNA FP: change in binding of human HNF4 alpha to DNA | P41235 | HNF4a-FITC DNA binding, fluorescence polarization, 1 h | activity change, % at 10 µM | 360,000 tested, 0.3% active; in the data active means activity change above about 30%, passing the limit was not always enough;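 further: controls were the assay level and a saturating level of protein; the project sought stronger binding though the title names inhibitors; some compounds called inactive have numbers as strong as hits; positive values seem to mean higher polarization but the record does not say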
Ecoli growth: blocks Escherichia coli growth; 330,000 tested, 0.21% active; OD600, 23 h; active compounds read low; OD600 absorbance (concentration not given with the values);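 active means OD600 absorbance below the run mean of sample wells minus 3.6 SD, in any replicate, cut at about 0.56 in these data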;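 further: stock transfer was 300 nL into about 60 µL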
AF4-AF9 inh: MLL-AF4/AF9 protein interaction inhibition; 350,000 tested, 0.47% active; P42568; AlphaScreen, biotin-AF4 peptide binding to FLAG-AF9; inhibition, % at 10 µM;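 active means every replicate reaching a set inhibition limit, whatever the replicate mean, cut at about 25% in these data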;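 further: 0% = plate neutral control median and 100% = total signal loss; the record names both 10 and 1 µM as test concentration; the first replicate is given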
Target sequence (P42568 whole entry, looked up): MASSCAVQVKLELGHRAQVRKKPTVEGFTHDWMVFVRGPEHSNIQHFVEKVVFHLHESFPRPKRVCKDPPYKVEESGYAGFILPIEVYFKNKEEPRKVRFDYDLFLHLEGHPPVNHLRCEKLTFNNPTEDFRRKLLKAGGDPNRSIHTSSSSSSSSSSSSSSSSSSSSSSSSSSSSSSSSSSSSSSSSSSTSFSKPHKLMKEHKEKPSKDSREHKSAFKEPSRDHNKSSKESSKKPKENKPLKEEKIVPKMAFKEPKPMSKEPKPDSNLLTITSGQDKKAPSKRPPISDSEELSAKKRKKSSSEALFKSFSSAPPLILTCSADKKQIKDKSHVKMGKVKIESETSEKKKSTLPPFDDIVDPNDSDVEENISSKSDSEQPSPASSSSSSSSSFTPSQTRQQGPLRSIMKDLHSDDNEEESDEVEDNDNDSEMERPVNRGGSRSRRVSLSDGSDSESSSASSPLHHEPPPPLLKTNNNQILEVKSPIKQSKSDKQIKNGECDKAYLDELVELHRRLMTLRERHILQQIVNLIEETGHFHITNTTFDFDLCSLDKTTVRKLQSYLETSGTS
ALR H2O2 inh: inhibitors of human sulfhydryl oxidase ALR; P55789; purified ALR, DTT oxidation, H2O2 HRP-luminol luminescence; inhibition, % (no concentration beside the values); 290,000 tested, 3.8% active; AID 485317;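 active means mean and each replicate at 75% or more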;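 further: stock transfer was 7.5 nL into about 7.5 µL; 0% = neutral wells and 100% = wells with inactivated enzyme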
Target sequence (P55789 whole entry, looked up): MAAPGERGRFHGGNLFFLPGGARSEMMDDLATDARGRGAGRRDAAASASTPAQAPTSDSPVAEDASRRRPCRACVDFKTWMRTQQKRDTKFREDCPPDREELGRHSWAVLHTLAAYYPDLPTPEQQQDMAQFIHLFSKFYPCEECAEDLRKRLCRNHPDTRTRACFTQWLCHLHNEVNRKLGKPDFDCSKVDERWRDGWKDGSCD
Vif TR-FRET: inhibitors of Vif binding to APOBEC3G peptide, primary screen, biochemical, TR-FRET, GST-Vif 1-94, biotin-A3G peptide, dose response retest (AID 1117319); TR-FRET GST-Vif / biotin-A3G peptide binding; higher % means a stronger effect; test concentration not given here; strong numbers were not always called active; inhibition, %; hits with a dose series show IC50 in µM; 260,000 tested, 0.57% active;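 active means above the screen mean plus three standard deviations and confirmed in dose response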;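 further: Vif residues 1-94 fused to GST binding biotinylated APOBEC3G peptide 110-148; 0% = full assay without inhibitor and 100% = GST in place of GST-Vif; retest series ran down from 100 µM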
FGF22 binding: shifts melting point of recombinant human FGF22; recombinant FGF22 thermal shift, SYPRO orange fluorescence; percent of sucrose octasulfate shift, DMSO zero; calls only at 9.99 µM; 340,000 tested, 1.5% active; AID 651658;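 active means melting point raised past a set limit in the mean and every replicate; three in four hits are not shown here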
Target sequence (Q9HCT0 whole entry, looked up): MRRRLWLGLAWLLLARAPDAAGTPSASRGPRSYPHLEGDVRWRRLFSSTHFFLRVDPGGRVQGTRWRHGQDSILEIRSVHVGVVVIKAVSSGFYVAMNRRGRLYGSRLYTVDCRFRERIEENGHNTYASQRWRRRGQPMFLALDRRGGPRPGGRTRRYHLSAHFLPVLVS
rRNA inh HTS: selective bacterial rRNA inhibition in E. coli | E. coli WT GFP vs humanized-ribosome RFP mutants, fluorescence, 24 h; active compounds read low; DMSO median 0, no signal -100 | 350,000 tested, 1.6% active | AID 720706 | GFP signal change (wild-type ribosome), % (test concentration not listed);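 active means significant combined selectivity score with lowered wild-type GFP, culture density cut under 30%, mutant RFP and density less affected; inactive means any of these conditions unmet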; further: one replicate is shown; some compounds called inactive have numbers as strong as hits
rRNA inh HTS OD600: recorded beside rRNA inh HTS, whose call it bears; OD600 change, %; measured here: OD600 growth;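 optical density of the mix in the first replicate; 0 = DMSO median and -100 = no signal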
rRNA inh HTS RFP: recorded beside rRNA inh HTS, whose call it bears; RFP signal change, %; measured here: RFP humanized mutant strains;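 first replicate; 0 = DMSO median and -100 = no signal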
The depositor's hits bear a star; & = joins results of further samples. The list is partial; count on the stated rates, not on these rows.

COc1ccc(-c2ccc3c(c2)[C@@H]2[C@@H](CCN2C(=O)c2ccncc2)[C@H](CO)N3C)cc1 was read as AF4-AF9 inh 9.7, FGF22 binding inactive, rRNA inh HTS -6, rRNA inh HTS OD600 -20 and rRNA inh HTS RFP -0.3.
`Cc1cccc(NC(=S)NNC(=S)NC2CCCCC2)c1C` gave HNF4A DNA FP 9.0, Ecoli growth 0.67, AF4-AF9 inh -0.6, Vif TR-FRET -4%, FGF22 binding inactive, rRNA inh HTS -5, rRNA inh HTS OD600 3 and rRNA inh HTS RFP 1.8.
For COc1ccc(C#Cc2ccc([C@@H]3[C@@H](CO)N4CCCCN(C(=O)c5ccncc5)C[C@H]34)cc2)cc1 the results were AF4-AF9 inh 7.2, FGF22 binding inactive, rRNA inh HTS -20, rRNA inh HTS OD600 -66 and rRNA inh HTS RFP 2.7.
For CCOC(=O)CCCNC(=O)CN1C(=O)NC2(CCCCCC2)C1=O the results were HNF4A DNA FP -1.0, Ecoli growth 0.69, ALR H2O2 inh -4 and Vif TR-FRET -2%.
For Clc1cccc(-c2ccc(/C=N/n3cnnc3)o2)c1Cl the results were HNF4A DNA FP -0.7, ALR H2O2 inh -1, rRNA inh HTS 0, rRNA inh HTS OD600 -2 and rRNA inh HTS RFP 0.8.
Screening O=C(c1sc2cc(Cl)ccc2c1Cl)N1CCN(CCc2ccccn2)CC1 returned HNF4A DNA FP -4.3, Ecoli growth 0.65, AF4-AF9 inh -1.7, ALR H2O2 inh -4, FGF22 binding inactive, rRNA inh HTS -41, rRNA inh HTS OD600 -57 and rRNA inh HTS RFP -7.3.
CC1=C/C(=N\NC(=S)NCc2ccccc2)CC1 was read as HNF4A DNA FP -3.1, AF4-AF9 inh 4.6, ALR H2O2 inh 5, Vif TR-FRET 4%, FGF22 binding inactive, rRNA inh HTS 7, rRNA inh HTS OD600 5 and rRNA inh HTS RFP 2.9.
`COc1ccc(N2C(=O)C(Cl)=C(Nc3ccccc3O)C2=O)cc1` gave HNF4A DNA FP -2.7, Ecoli growth 0.73, ALR H2O2 inh -5 and Vif TR-FRET 15%.
For FC(F)(F)c1ccc(Cl)c(NC(=S)NC2CC2)c1 the results were HNF4A DNA FP -2.4, Ecoli growth 0.66, AF4-AF9 inh 7.5, Vif TR-FRET -4%, FGF22 binding inactive, rRNA inh HTS -5, rRNA inh HTS OD600 1 and rRNA inh HTS RFP -6.9.
CSc1ncccc1C(=O)NC1CCN(Cc2ccccc2)CC1 was read as HNF4A DNA FP 1.1, Ecoli growth 0.7, AF4-AF9 inh -0.7, ALR H2O2 inh -3, Vif TR-FRET 0%, FGF22 binding inactive, rRNA inh HTS 3, rRNA inh HTS OD600 9 and rRNA inh HTS RFP -3.2.
Screening CCOC(=O)CNC(=O)CSc1nnc(CCc2nc3ccccc3[nH]2)n1C returned HNF4A DNA FP -3.0, Ecoli growth 0.63, AF4-AF9 inh 2.9, ALR H2O2 inh -2, Vif TR-FRET -2%, FGF22 binding inactive, rRNA inh HTS 8, rRNA inh HTS OD600 9 and rRNA inh HTS RFP -0.4.
For COC(=O)c1cc(Br)c(=O)n(CCC2=CCCCC2)c1 the results were HNF4A DNA FP 0.8, Ecoli growth 0.7, ALR H2O2 inh -7 and Vif TR-FRET 10%.
For O=C1NCC(COc2cccc3ccccc23)O1 (centres undefined) the results were HNF4A DNA FP 1.1, Ecoli growth 0.7, AF4-AF9 inh -1.0, ALR H2O2 inh -13, Vif TR-FRET -1%, FGF22 binding inactive, rRNA inh HTS -7, rRNA inh HTS OD600 -8 and rRNA inh HTS RFP -0.4.
`CC(C)C(NC(=O)CCNC(=O)c1ccc(C(C)(C)C)cc1)c1nc2ccccc2[nH]1` (centres undefined) gave HNF4A DNA FP 0.1, Ecoli growth 0.71, AF4-AF9 inh -0.9, ALR H2O2 inh 0, FGF22 binding inactive, rRNA inh HTS 5, rRNA inh HTS OD600 9 and rRNA inh HTS RFP 1.0.
COc1cc(/C=N/NC(=O)COc2cccc(F)c2)ccc1OS(=O)(=O)c1ccc(C)cc1 was read as HNF4A DNA FP -3.0, AF4-AF9 inh -8.7, ALR H2O2 inh -5, Vif TR-FRET 8%, FGF22 binding inactive, rRNA inh HTS -18, rRNA inh HTS OD600 -19 and rRNA inh HTS RFP 14.
For Cc1ccnc2c1NC(=O)c1cccnc1N2C1CC1 the results were HNF4A DNA FP 2.0, Ecoli growth 0.67, AF4-AF9 inh -0.9, ALR H2O2 inh -3, Vif TR-FRET -5%&-12%, FGF22 binding inactive, rRNA inh HTS 3, rRNA inh HTS OD600 3 and rRNA inh HTS RFP 1.5.
O=C(C[C@@H]1CC[C@H]2[C@@H](COC[C@@H](O)CN2Cc2cccc(Cl)c2)O1)N1CCCCC1 was read as AF4-AF9 inh -4.7, FGF22 binding inactive, rRNA inh HTS -4, rRNA inh HTS OD600 -11 and rRNA inh HTS RFP -2.4.
CCCC#Cc1ccc2c(c1)O[C@H](CN(C)CC1CC1)[C@H](C)CN([C@H](C)CO)S2(=O)=O was read as AF4-AF9 inh 4.5, FGF22 binding inactive, rRNA inh HTS 10, rRNA inh HTS OD600 9 and rRNA inh HTS RFP 2.1.
O=C(Nc1ccc(Cl)cn1)c1cccc2ccccc12 was read as HNF4A DNA FP 5.0, Ecoli growth 0.67, AF4-AF9 inh -2.9, ALR H2O2 inh -6, FGF22 binding inactive, rRNA inh HTS 11, rRNA inh HTS OD600 12 and rRNA inh HTS RFP 0.9.
`O=C(CO/N=C/c1ccc(OC(F)F)cc1)NC1CCCCCC1` gave HNF4A DNA FP 0.6, AF4-AF9 inh -1.5, ALR H2O2 inh -7, FGF22 binding inactive, rRNA inh HTS -12, rRNA inh HTS OD600 -7 and rRNA inh HTS RFP -4.2.
COc1ccc(CNC(=O)C(=O)NCC2OCCN2S(=O)(=O)c2ccc(C)cc2)cc1 (centres undefined) was read as HNF4A DNA FP -5.4, Ecoli growth 0.65, AF4-AF9 inh -0.3, ALR H2O2 inh -5, FGF22 binding inactive, rRNA inh HTS 19, rRNA inh HTS OD600 18 and rRNA inh HTS RFP 1.3.
COC(=O)[C@]1(C)N[C@H](c2ccc(-c3ccc(Cl)c(Cl)c3)cc2)[C@@H]2C(=O)N(C)C(=O)[C@@H]21 was read as HNF4A DNA FP -1.0, AF4-AF9 inh 4.8, ALR H2O2 inh 0, FGF22 binding inactive, rRNA inh HTS -21, rRNA inh HTS OD600 -35 and rRNA inh HTS RFP 4.8.
Screening Cc1ccc(NC(=O)N2CCc3ccccc3C2)cc1C returned HNF4A DNA FP 3.6, Ecoli growth 0.7, AF4-AF9 inh -0.2, ALR H2O2 inh -15, FGF22 binding inactive, rRNA inh HTS 3, rRNA inh HTS OD600 14 and rRNA inh HTS RFP 1.0.
`CCC(C)Sc1nnc(NC(=O)c2ccco2)s1` (centres undefined) gave HNF4A DNA FP -0.6, AF4-AF9 inh -2.6, Vif TR-FRET 2%, FGF22 binding inactive, rRNA inh HTS -4, rRNA inh HTS OD600 -2 and rRNA inh HTS RFP 2.6.
`C[C@@H]1CN([C@H](C)CO)C(=O)Cc2cc(NS(=O)(=O)c3cccs3)ccc2O[C@@H]1CN(C)S(=O)(=O)c1ccc(Cl)cc1` gave AF4-AF9 inh 2.5, FGF22 binding inactive, rRNA inh HTS 0, rRNA inh HTS OD600 -15 and rRNA inh HTS RFP 2.3.
CCCN1CCN(CCCNC(=O)C2CCCN(c3nc4ccc(OCC)cc4s3)C2)CC1 (centres undefined) was read as HNF4A DNA FP -2.6, Ecoli growth 0.72, ALR H2O2 inh 2 and Vif TR-FRET -2%.
For CN(C(=O)N1CCN(c2ccccn2)CC1)c1ccccc1 the results were HNF4A DNA FP 0.1, Ecoli growth 0.72, ALR H2O2 inh 3 and Vif TR-FRET -4%.
For Cc1ccnc2nc(C(=O)OCC(=O)NCc3cccc(Cl)c3)nn12 the results were HNF4A DNA FP 0.6, Ecoli growth 0.7, AF4-AF9 inh -2.0, ALR H2O2 inh -1, FGF22 binding inactive, rRNA inh HTS 6, rRNA inh HTS OD600 -8 and rRNA inh HTS RFP -0.4.
COc1ccc(/C(O)=C/c2nc3ccccc3n(-c3ccccc3)c2=O)cc1 was read as HNF4A DNA FP 50*, ALR H2O2 inh -2 and Vif TR-FRET 8%.
Screening Cc1ccc(S(=O)(=O)Nc2ccc3c(c2)C(=O)N([C@H](C)CO)C[C@H](C)[C@@H](CN(C)S(=O)(=O)c2ccc(F)cc2)O3)cc1 returned AF4-AF9 inh -2.0, FGF22 binding inactive, rRNA inh HTS 0, rRNA inh HTS OD600 1 and rRNA inh HTS RFP 1.2.

Entries from the list above that contain an NH in an aromatic ring (2):
Screening CCOC(=O)CNC(=O)CSc1nnc(CCc2nc3ccccc3[nH]2)n1C returned HNF4A DNA FP -3.0, Ecoli growth 0.63, AF4-AF9 inh 2.9, ALR H2O2 inh -2, Vif TR-FRET -2%, FGF22 binding inactive, rRNA inh HTS 8, rRNA inh HTS OD600 9 and rRNA inh HTS RFP -0.4.
`CC(C)C(NC(=O)CCNC(=O)c1ccc(C(C)(C)C)cc1)c1nc2ccccc2[nH]1` (centres undefined) gave HNF4A DNA FP 0.1, Ecoli growth 0.71, AF4-AF9 inh -0.9, ALR H2O2 inh 0, FGF22 binding inactive, rRNA inh HTS 5, rRNA inh HTS OD600 9 and rRNA inh HTS RFP 1.0.

Following part
`O=C(Cn1cnc2c(nnn2Cc2ccc(Cl)cc2)c1=O)N1CCN(c2ccccc2)CC1` gave HNF4A DNA FP -0.9, Ecoli growth 0.79, AF4-AF9 inh -11, ALR H2O2 inh -4, Vif TR-FRET 8%, FGF22 binding inactive, rRNA inh HTS 0, rRNA inh HTS OD600 -17 and rRNA inh HTS RFP 2.5.
Screening CN(CC(=O)Nc1cccc(F)c1)C(=O)c1ccc2c(c1)CC(c1ccccc1)OC2=O (centres undefined) returned HNF4A DNA FP 3.9, Ecoli growth 0.68, AF4-AF9 inh 3.7, Vif TR-FRET -1%, FGF22 binding inactive, rRNA inh HTS -28, rRNA inh HTS OD600 -23 and rRNA inh HTS RFP -1.8.
For Nc1nc(Nc2ccc(Cl)cc2)n[nH]1 the results were HNF4A DNA FP 2.8, Ecoli growth 0.71, ALR H2O2 inh 99* and Vif TR-FRET 7%.
`Oc1ccc(Br)cc1/C=N/n1cnc2ccccc21` gave HNF4A DNA FP 5.0, ALR H2O2 inh -3 and Vif TR-FRET 0%.
CCNC(=O)Cc1ccc(Br)cc1 was read as HNF4A DNA FP 1.5, Ecoli growth 0.77, ALR H2O2 inh -17 and Vif TR-FRET 4%.
Screening O=C(c1cccs1)N1C[C@H](O)[C@@H](n2cc(C3CC3)nn2)C[C@@H]1c1ccccc1 returned HNF4A DNA FP 4.6, AF4-AF9 inh -4.2, FGF22 binding inactive, rRNA inh HTS -2, rRNA inh HTS OD600 6 and rRNA inh HTS RFP -4.9.
`C[C@H](CO)N1C[C@H](C)[C@@H](CN(C)C(=O)c2cccnc2)Oc2ncc(C3=CCCCC3)cc2C1=O` gave AF4-AF9 inh -8.3, FGF22 binding inactive, rRNA inh HTS 2, rRNA inh HTS OD600 -4 and rRNA inh HTS RFP -2.4.
`O=C(N/N=C\c1ccc(Cl)s1)c1cccs1` gave HNF4A DNA FP 1.7, ALR H2O2 inh 0 and Vif TR-FRET -1%.
For COc1ccc(CNC(=O)C(c2ccncc2)N(C(=O)Cc2cccs2)c2cccc(C)c2)cc1 (centres undefined) the results were HNF4A DNA FP -2.3, Ecoli growth 0.71, AF4-AF9 inh -4.3, ALR H2O2 inh -6, Vif TR-FRET 13%, FGF22 binding inactive, rRNA inh HTS 11, rRNA inh HTS OD600 7 and rRNA inh HTS RFP 1.3.
For CC(C)(C)OC(=O)N1CCC(c2c(C(=O)NCC3CCN(C4CCCC4)C3)cnn2-c2ccc(F)cc2)CC1 (centres undefined) the results were HNF4A DNA FP -1.4, Ecoli growth 0.59, AF4-AF9 inh 4.7, ALR H2O2 inh -1, FGF22 binding inactive, rRNA inh HTS -7, rRNA inh HTS OD600 -8 and rRNA inh HTS RFP 2.9.
